miR-21 reporter: miR-21 reporter, rising signal; Potency, µM (top dose mostly 38.3 µM), without a hit: at the top dose reporter change, positive = more light; AID 2288; 340,000 tested, under 10 active; HeLa miR-21 FLuc reporter, luciferase, 48 h; active = well fitted rising curve with a large enough effect; inconclusive = small, poorly fitted or top-dose-only effect; inactive = no such curve, though single readings can be large or run the other way;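 note: % of control where 0% means no effect; miR-21 action dims this reporter so a rising signal means less miR-21 action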
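Using DMEM plus 10% FBS, HeLa miR-21-FLuc cells are incubated with test compounds (final up to about 40uM) for 48 hours; firefly luciferase signal is then imaged following reagent-mediated lysis.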
GLA inh pH 4.5: alpha-galactosidase A (human) inhibition, pH 4.5; activity change, negative = inhibition, % at 105 µM; 230,000 tested, under 10 active; purified enzyme, 4-MU-alpha-Gal fluorescence, pH 4.5; AID 1467; P06280; inconclusive = small, poorly fitted or top-dose-only inhibition, or a rising curve; inactive = flat fitted curve, though single readings scatter; no compound was filed as active;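 note: 0% = full activity with enzyme and -100% = basal without enzyme; dose as in the result columns while the protocol names 77 µM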
Rango-impB inh: prevents formation of the Rango-importin beta complex; 0.031% of 340,000 active; Rango CFP/YFP FRET sensor + importin beta, 45 min; Potency, µM (titrated, usually from 92.2 µM), inactives show at the highest dose inhibition of complex formation; Q14974; active = rising FRET ratio curve, often small or poorly fitted; inconclusive = mostly compound fluorescence or quenching in the first reads; inactive = flat curves in all reads;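 note: potency is the fitted concentration of half-maximal effect; 0% = DMSO wells and 100% = buffer wells lacking importin beta; nearly all actives have a fitted effect of over 15% in size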
Target sequence (Q14974 whole entry, looked up): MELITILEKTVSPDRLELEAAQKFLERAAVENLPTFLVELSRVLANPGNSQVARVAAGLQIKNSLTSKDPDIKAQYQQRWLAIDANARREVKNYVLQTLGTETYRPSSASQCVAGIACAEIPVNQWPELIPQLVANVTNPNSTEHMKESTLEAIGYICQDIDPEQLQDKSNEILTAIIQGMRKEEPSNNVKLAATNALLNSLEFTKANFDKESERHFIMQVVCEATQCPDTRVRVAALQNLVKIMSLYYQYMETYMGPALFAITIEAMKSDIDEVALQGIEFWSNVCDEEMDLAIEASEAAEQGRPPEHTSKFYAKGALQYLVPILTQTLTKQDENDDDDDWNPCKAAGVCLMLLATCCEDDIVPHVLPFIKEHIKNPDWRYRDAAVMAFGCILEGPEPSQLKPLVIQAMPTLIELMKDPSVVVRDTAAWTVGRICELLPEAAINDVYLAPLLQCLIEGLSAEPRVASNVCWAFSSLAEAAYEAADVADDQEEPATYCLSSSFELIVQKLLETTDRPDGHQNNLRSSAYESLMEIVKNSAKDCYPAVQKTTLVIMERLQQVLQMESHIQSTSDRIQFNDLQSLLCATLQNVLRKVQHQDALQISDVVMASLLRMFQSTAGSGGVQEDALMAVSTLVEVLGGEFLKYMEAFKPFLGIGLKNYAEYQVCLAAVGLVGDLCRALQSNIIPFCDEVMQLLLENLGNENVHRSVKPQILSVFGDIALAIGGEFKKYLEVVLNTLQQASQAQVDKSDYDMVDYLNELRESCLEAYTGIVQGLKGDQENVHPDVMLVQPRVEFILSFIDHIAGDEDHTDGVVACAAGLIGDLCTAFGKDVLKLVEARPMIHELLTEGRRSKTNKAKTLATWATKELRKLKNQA
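FRET biosensor Rango (snurportin 1 IBB between N-terminal EYFP and C-terminal Cerulean), 50 nM in PBS/1 mM DTT/0.02% Tween-20/0.1% BSA, preincubated 5 min RT with compound; 0.125 microM importin beta added, 45 min RT, CFP/YFP FRET ratio read.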
Rango release inh: prevents RanGTP from dissociating the Rango-importin beta complex; AID 540253; Biochemical FRET Rango-importin beta, RanGTP-induced dissociation; Potency, µM (top dose mostly 46.1 µM), without a hit: at the highest dose activity change, negative = inhibition; O95149+P62826; 0.071% of 340,000 active; active means falling FRET ratio curve, often poorly fitted, with flat reads before Ran was added; inconclusive means other falling curves, or compound fluorescence or quenching; inactive means flat or rising ratio curve;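 note: potency is the fitted concentration of half-maximal effect; % of control where 0% means no effect; nearly all actives have a fitted effect of over 45% in size; -100% = wells without RanGTP and RCC1; the record marks most hits as doubtful in a second field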
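Compounds sat 5 min at room temperature with 0.1 uM Rango biosensor plus 0.25 uM importin beta, then FRET pre-read. RanGTP-RCC1 (0.6 uM Ran, 2mM GTP, 0.2 uM RCC1) added for 45 min, and the CFP/YFP post-read measured blocked complex dissociation.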
* marks the source's active call; other numbers are inactive results; ? = inconclusive; / = no result given. Some of the compounds tested; the hit share may differ from the screen's.

cpd	miR-21 reporter	GLA inh pH 4.5	Rango-impB inh	smiles	Rango release inh
1	14%	2	-1.1%	COc1cccc2c(=O)cc(C)n(CC(=O)Nc3ccc(C)c(C)c3)c12	6%
2	0%	-1	-2.4%	O=C1CC2(CC(c3ccc(Cl)cc3)=NO2)C(=O)N1c1ccccc1 (stereo not given)	0%
3	/	/	?	Cc1ccc(S(=O)(=O)N2CCN(C(=O)COC(=O)COc3ccc(Cl)c(C)c3)CC2)c(C)c1	-14%
4	-5%	-1	-0.3%	COc1ccc2[nH]c(C)cc(=O)c2c1	2%
5	-16%	3	-2.1%	O=C(O)c1cc(-c2ccc(N3CCOCC3)cc2)nn1-c1ccc(F)cc1F	-11%
6	-43%	-5	-5.3%	CCC(=O)Nc1cccc(-c2cn3ccccc3n2)c1	-13%
7	0%	8	2.4%	NC1=NC(=O)/C(=C/c2ccccc2OS(=O)(=O)c2ccccc2)S1	1%
8	21%	/	0.0%	CC(C)NC(=O)N1c2ccccc2Sc2ccccc21	18%
9	4%	3	-1.4%	CC(C)C(=O)Nc1ccc(N2CCN(c3ccc(F)cc3)CC2)cc1	-7%
10	/	/	?	CC(NC(=O)C1CCN(C(=O)Nc2ccccc2)CC1)c1ccccc1Cl (stereo not given)	1%
11	-40%	1	0.0%	O=C(COC(=O)c1ccccc1Nc1ccc(SC(F)F)cc1)NC1CC1	-14%
12	-4%	3	-4.7%	C/C=C/C(=O)NCCc1ccc(OC)c(OC)c1	-8%
13	0%	4	-0.9%	C=CCN(CC=C)C(=O)c1ccccc1NC(=O)c1ccccc1C	-7%
14	-4%	/	1.4%	COCCn1c(SCc2cccc([N+](=O)[O-])c2)nc2ccccc2c1=O	?
15	4%	/	0.9%	COc1ccc(C(CC(=O)Nc2nccs2)C(C)C)cc1 (stereo not given)	2%
16	8%	-8	?	CNCCCCOc1ccc(C(C)(C)C)cc1Cl	-13%
17	-1%	-3	-2.2%	COc1ccc(-n2nnc3c(SCC(=O)OCc4ccccc4)ncnc32)cc1	?
18	-6%	4	1.5%	CCn1cc2c(c1-c1cccc(C)c1)c(=O)n(C)c(=O)n2C	-2%
19	/	/	-1.7%	CC(C(=O)N1c2ccccc2CC1C)N1CCN(S(=O)(=O)c2ccccc2F)CC1 (stereo not given)	-8%
20	0%	-1	-2.5%	Cc1ccccc1NC(=O)CSc1nc2n(n1)CCCCC2	1%
21	1%	16	?	CCOc1ccccc1NC(=O)CSC1=C(C#N)C(c2ccco2)C(C(=O)Nc2nc3ccccc3s2)=C(C)N1 (stereo not given)	?
22	1%	-3	?	COc1ccc(/C=C/c2nc(-c3ccccc3)cc(=O)[nH]2)cc1	-15%
23	-4%	-5	4.1%	Cc1csc(SCC(=O)NC(=O)NC(C)C)n1	-9%
24	-4%	2	-0.7%	S=C(NCc1ccc(Cl)cc1)NCc1ccccn1	-5%
25	-97%	-3	2.1%	COc1cc(SC)ccc1C(=O)NCCOc1ccc(F)cc1	-10%
26	4%	-18	0.7%	COc1ccc(NC(=O)CSC2=NCCN2)cc1	-1%
27	-5%	/	1.0%	Cc1ccc(C(=O)CC(C(=O)O)n2cncn2)cc1 (stereo not given)	-6%
28	-8%	-1	?	CCCCn1c(/N=C/c2cc(OC)ccc2O)nc2ccccc21	-24%
29	-7%	5	1.1%	Cc1cccc2cc(C#N)c(SCC(=O)NCC3CCCO3)nc12 (stereo not given)	-14%
30	-8%	/	0.1%	CC(=O)c1ccc(N=Nc2c(C)[nH]n(-c3ccccc3)c2=O)cc1	0%
31	-2%	1	-3.0%	O=c1[nH]c(/C=C\c2cccs2)nc(O)c1[N+](=O)[O-]	-11%
32	-1%	-5	1.0%	COc1ccc(C(=O)NC2CCN(C(=S)Nc3ccccc3)CC2)cc1	23%
33	16%	/	-3.9%	CCOc1cc([N+](=O)[O-])cc(/C=N/NC(=O)c2c(-c3ccccc3)noc2C)c1O	-17%
34	-6%	-12	?	CC(C)(CO)NC(=S)NCc1ccco1	-12%
35	/	/	6.0%	COc1cccc(CC(=O)OC(C)C(=O)Nc2ccc(Cl)cn2)c1 (stereo not given)	23%
36	-6%	-8	1.8%	COc1cccc(-n2c(SCC(=O)Nc3ccc4c(c3)CCC4)nc3ccccc3c2=O)c1	-10%
37	-17%	1	0.0%	COC(CNC(=O)c1ccc2c(c1)ncn2-c1cccc(F)c1)OC	-6%
38	4%	/	4.7%	COc1ccccc1OCCNC(=O)c1cccc(S(=O)(=O)N2CCN(C)CC2)c1	-9%
39	/	/	?	O=C(NCC(c1ccco1)N1CCCC1)c1cccc(NS(=O)(=O)c2ccccc2)c1 (stereo not given)	-17%
40	-5%	0	-1.0%	Cc1nc(-c2nc(-c3c(C(=O)NNC(=O)c4ccc(Cl)cc4)noc3C)cs2)cs1	10%
41	-2%	7	-0.3%	CCn1nc(C)c(NC(=O)CCSc2nc(-c3ccco3)cc(C(F)(F)F)n2)c1C	0%
42	-6%	-2	?	O=C(c1cn2ccccc2n1)N1CCc2c([nH]c3ccccc23)C1c1ccccn1 (stereo not given)	-10%
43	-1%	-25	-8.0%	O=C(CSc1nnc(-c2ccccc2O)n1-c1ccccc1)Nc1cccc(C(=O)O)c1	-4%
44	/	/	-2.2%	CCCC(C(=O)Nc1ccc(S(=O)(=O)N2CCCC2)cc1)c1ccccc1 (stereo not given)	-9%
45	-9%	-4	2.8%	CC(=O)Nc1ccc2c(c1)nc(CCNC(=O)c1ccccc1)n2C	5%
46	-5%	-2	5.7%	COc1ccc(C(=O)CSc2nnc(-c3cc(C)cc(C)c3)o2)cc1	-3%
47	1%	-3	3.3%	Cc1noc(C)c1COC(=O)CNC(=O)c1ccc(Cl)cc1	-19%
48	-23%	3	1.3%	c1ccc(Oc2ccc(-c3ccnc4ncnn34)cc2)cc1	-8%
49	-9%	0	3.2%	COc1ccc(CC(=O)Nc2ccc3nc(C)sc3c2)cc1OC	-1%
50	2%	0	-1.8%	N#C/C(=C\C1=C(N2CCOCC2)C(=C\c2ccc(Cl)cc2)/CC1)C(=O)Nc1ccccc1F	1%
51	/	/	-1.6%	CC(C)C[C@H](NC(=O)c1[nH]cnc1C(=O)N[C@@H](C)C(=O)OCc1ccccc1)C(=O)OCc1ccccc1	-1%
52	-10%	-6	-0.4%	CCOC(=O)c1c(CN2CCCCC2)oc2ccc(O)cc12	20%
53	7%	/	1.8%	COc1ccc(-c2cc(C)no2)cc1S(=O)(=O)NCC1CCN(Cc2cc(C)ccc2C)CC1	-5%
54	2%	4	-3.0%	CCCC(=O)Nc1c(-c2ccc(OC)cc2)c(=O)c2ccccc2n1C	-1%
55	-1%	-6	-2.9%	O=C(Nc1nnc(COc2ccc(Cl)cc2)s1)c1ccc([N+](=O)[O-])cc1	1%
56	-5%	/	1.0%	O=C(NCCCn1ccnc1)c1ccc(Cl)c(Cl)c1	-7%
57	-3%	5	?	O=C(NCCCN1CCCC1=O)c1ccccc1NS(=O)(=O)c1ccc(F)cc1	4%
58	25%	9	?	CCOc1cc(CNCCc2ccc(S(N)(=O)=O)cc2)ccc1OCC(=O)NC1CCCCC1	0%
59	/	/	-0.1%	C[C@H]1CN([C@@H](C)CO)C(=O)c2cccc(NC(=O)C3CC3)c2O[C@H]1CN(C)Cc1ccncc1	0%
60	-34%	2	-0.4%	O=C(Nc1cccc([N+](=O)[O-])c1)c1ccc(-c2ccccc2)cc1	16%

Continuation:
cpd	miR-21 reporter	GLA inh pH 4.5	Rango-impB inh	smiles	Rango release inh
61	1%	-1	-5.7%	Cc1ccc(CSc2nnc(-c3ccc(S(=O)(=O)N4CCCC4)cc3)o2)cc1	7%
62	1%	/	-0.8%	O=C(c1cccc(C(F)(F)F)c1)N1CCOc2ccccc21	1%
63	-11%	5	1.0%	O=C(OCn1nnc2ccccc2c1=O)c1cccs1	-9%
64	3%	/	?	Cc1oc2c(C)c3oc(=O)c(CCC(=O)NCCN4CCOCC4)c(C)c3cc2c1C	4%
65	1%	/	5.4%	O=C(Cc1c(F)cccc1Cl)OCN1C(=O)c2ccccc2C1=O	0%
66	/	/	-1.2%	COc1ccc(S(=O)(=O)N2CCCCC2)cc1NC(=O)CCOc1cc(C)ccc1C	-9%
67	-66%	6	11%	Cc1cccc(Nc2n[nH]c(C)c2[N+](=O)[O-])c1	35%
68	-10%	6	-0.6%	O=C(c1cc(N2C(=O)C3C4CCC(C4)C3C2=O)ccc1Cl)N1CCN(c2ccccc2F)CC1 (stereo not given)	-5%
69	0%	/	3.4%	O=C(Nc1ccccn1)C1CCN(c2ncnc3c2nc2n3CCCCC2)CC1	-21%
70	/	/	0.2%	Cc1ccc(NC(=O)CSc2nnc(CNC(=O)c3ccco3)n2C)c(C)c1	-2%
71	0%	-26	-2.9%	O=C(COC(=O)/C(=C/c1cccs1)c1cccs1)NCc1ccccc1Cl	2%
72	14%	/	?	COc1cc(/C=C2\SC(=S)N(CCC(=O)Nc3cccc(O)c3)C2=O)cc(OC)c1OC	-1%
73	/	/	-0.1%	Cc1cc(C)n2nc(SC(C)C(=O)N3CCCC3)nc2n1 (stereo not given)	7%
74	/	/	-0.9%	CN(CC(=O)Nc1ccc(F)c(F)c1F)C(=O)C1=NN(c2ccccc2)C(=O)CC1	11%
75	-4%	8	2.8%	CC(C)(C)c1oc(C(=O)O)cc1CN1CCOCC1	-13%
76	28%	7	-1.5%	CCOC(=O)c1[nH]c2ccccc2c1NC(=O)c1ccc(Br)o1	27%
77	/	/	-3.3%	Cc1ccc([C@@H]2CC=C(C(=O)O)[C@H](c3ccccc3)N2S(=O)(=O)c2ccc(C)cc2)cc1	-6%
78	/	/	6.2%	CCCCCCCCN1[C@@H](CC(=O)OC)c2cc(F)ccc2S1(=O)=O	?
79	-4%	8	-1.1%	O=C(c1ccc(-c2nnc(Nc3ccccc3)c3ccccc23)cc1)N1C[C@H]2C[C@H](C1)c1cccc(=O)n1C2	2%
80	0%	1	-5.3%	COc1ccc(OC)c(-n2nnnc2SCC(=O)O)c1	-1%
81	-22%	3	-2.1%	CCOc1ccc(NS(=O)(=O)c2ccc3[nH]cc(C(=O)N(CC)CC)c(=O)c3c2)cc1	5%
82	1%	/	-0.8%	O=C(CN1C(=O)/C(=C/c2ccccc2)SC1=S)NC1CCS(=O)(=O)C1 (stereo not given)	-8%
83	28%	-7	3.1%	Cc1ccc(OCC(=O)N2CCN(c3nnc(-c4ccccc4)c4ccccc34)CC2)cc1	-7%
84	1%	/	6.0%	O=C1NC(=S)N/C1=C/c1cc2c(cc1[N+](=O)[O-])OCO2	?
85	-25%	-3	-5.0%	CN(C)/C=C(\C#N)c1nc2ccccc2[nH]1	0%
86	-15%	-2	1.8%	CCn1c(SCc2ccccc2)nnc1-c1cccs1	7%
87	/	/	-2.6%	COc1ccc(NC(=O)N(C)C[C@H]2Oc3c(NC(=O)Nc4ccc(C(F)(F)F)cc4)cccc3C(=O)N([C@H](C)CO)C[C@@H]2C)cc1	-5%
88	-3%	/	4.5%	CCOc1ccccc1NC(=O)c1sc2ncn(CC(=O)N3CCOCC3)c(=O)c2c1C	-10%
89	0%	5	-3.5%	COc1ccc(CCNC(=O)C2CCN(S(=O)(=O)c3cccs3)CC2)cc1OC	-9%
90	-5%	5	-3.1%	COc1ccc(C(=O)Cn2nnc(-c3ccccc3-n3cnnn3)n2)cc1	2%
91	2%	2	3.6%	COc1cc(NC(=S)N2CCN(c3ccccn3)CC2)cc(OC)c1OC	-2%
92	0%	0	-3.3%	COCCNC(=O)c1ccccc1NC(=O)c1ccccc1N(C)S(=O)(=O)c1ccccc1	-7%

Entries shown so far that contain a COOH group:
cpd	miR-21 reporter	GLA inh pH 4.5	Rango-impB inh	smiles	Rango release inh
5	-16%	3	-2.1%	O=C(O)c1cc(-c2ccc(N3CCOCC3)cc2)nn1-c1ccc(F)cc1F	-11%
27	-5%	/	1.0%	Cc1ccc(C(=O)CC(C(=O)O)n2cncn2)cc1 (stereo not given)	-6%
43	-1%	-25	-8.0%	O=C(CSc1nnc(-c2ccccc2O)n1-c1ccccc1)Nc1cccc(C(=O)O)c1	-4%
75	-4%	8	2.8%	CC(C)(C)c1oc(C(=O)O)cc1CN1CCOCC1	-13%
77	/	/	-3.3%	Cc1ccc([C@@H]2CC=C(C(=O)O)[C@H](c3ccccc3)N2S(=O)(=O)c2ccc(C)cc2)cc1	-6%
80	0%	1	-5.3%	COc1ccc(OC)c(-n2nnnc2SCC(=O)O)c1	-1%

Screens from PubChem BioAssay.
